From PubChem BioAssay
Kir21 inh: Kir2.1 (mouse) channel inhibition; P35561; HEK293-Kir2.1, FluxOR thallium flux fluorescence; active compounds read low; B-score at 10 µM; actives 0.85% (n = 310,000); AID 1672;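 active = fluorescence ratio B-score at or below minus 3 SD of library scores, with starting-brightness B-score within 2 SD, cut at about -4.2 in these data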;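 note: channel flux triggered by added potassium and thallium sulfate stimulus; B-score of peak minus minimum fluorescence over baseline after thallium stimulus; more negative B-score means stronger Kir2.1 block with less thallium influx; some compounds called inactive have numbers as strong as hits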
* hit, by the source's call.

Preview, 4 compounds:
SMILES	Kir21 inh
CC(C)c1ccc(OCC(=O)N2CCCN(C)CC2)cc1	-0.17
C#CCNc1ccncc1S(=O)(=O)NC(=O)NC(C)C	2.8
O=C1NC(=O)C(CCc2ccncc2)(c2ccccc2)C(=O)N1	-0.86
C[C@]12CC[C@H](O)CC1=CC[C@@H]1[C@@H]2CC[C@@]2(C)[C@H]1CC[C@]2(C)O	0.19

The listing, from the start:
SMILES	Kir21 inh
CC(C)c1ccc(OCC(=O)N2CCCN(C)CC2)cc1	-0.17
C#CCNc1ccncc1S(=O)(=O)NC(=O)NC(C)C	2.8
O=C1NC(=O)C(CCc2ccncc2)(c2ccccc2)C(=O)N1	-0.86
C[C@]12CC[C@H](O)CC1=CC[C@@H]1[C@@H]2CC[C@@]2(C)[C@H]1CC[C@]2(C)O	0.19
COC(=O)NC(=C(Cl)Cl)P(=O)(c1ccccc1)c1ccccc1	-0.87
COC(=O)C1=C(c2cc3ccccc3s2)C[C@@H]2CC[C@H]1N2C(=O)NCCCOC(C)C	-1.7
COC(=O)N1CCN(C(=O)Cc2ccc(Cl)c(Cl)c2)C(CN2CCCC2)C1 (stereo not drawn)	-0.83
O=C(c1cc(-c2ccc(Cl)cc2)n(-c2ccc(Cl)cc2Cl)n1)N1CCOCC1	1.4
O=c1[nH]c(=S)n(CCC2=CCCCC2)c(O)c1C=NCCCn1ccnc1	-0.63
c1ccc2c(CN3CCOCC3)c[nH]c2c1	-1.6

Six of the compounds above, comma-delimited:
canonical_smiles,Kir21 inh
C[C@]12CC[C@H](O)CC1=CC[C@@H]1[C@@H]2CC[C@@]2(C)[C@H]1CC[C@]2(C)O,0.19
COC(=O)NC(=C(Cl)Cl)P(=O)(c1ccccc1)c1ccccc1,-0.87
COC(=O)C1=C(c2cc3ccccc3s2)C[C@@H]2CC[C@H]1N2C(=O)NCCCOC(C)C,-1.7
COC(=O)N1CCN(C(=O)Cc2ccc(Cl)c(Cl)c2)C(CN2CCCC2)C1 (stereo not drawn),-0.83
O=C(c1cc(-c2ccc(Cl)cc2)n(-c2ccc(Cl)cc2Cl)n1)N1CCOCC1,1.4
O=c1[nH]c(=S)n(CCC2=CCCCC2)c(O)c1C=NCCCn1ccnc1,-0.63

Next section:
SMILES	Kir21 inh
CC(=O)N1CCN(Cc2ccc(Cl)nc2)CC1	0.08
O=C(CN1CCOCC1)Nc1ccc(Br)cc1C(=O)c1ccccc1	-1.2
O=C(c1cccn2c(=O)c3ccc(Cl)cc3nc12)N1CCC2(CC1)OCCO2	0.52
CC(=O)Nc1ccccc1C(=O)OCc1ccccc1F	-1
Cc1ccc(C(=O)COC(=O)Cc2ccccc2)cc1	0.56
CCC(=NCCO)c1c(O)n(-c2ccccc2)c(=O)[nH]c1=O	-0.61
CN1CC=C2C(C#N)=C(N)C(C#N)(C#N)C(c3ccncc3)C2C1 (stereo not drawn)	-2.9
CC(N=Cc1c(O)[nH]c(=O)[nH]c1=O)c1ccccc1 (stereo not drawn)	0.72
Cc1[nH]c2ccccc2c1CCNCc1ccco1	1
COc1ccccc1OCC(=O)N1CCN(Cc2ccc3c(c2)OCO3)CC1	-0.03
COc1ccccc1N=C1SCCCN1C	0
COC(=O)c1cc(C(O)(C(=O)OC)C(F)(F)F)c(/N=C/N(C)C)s1 (stereo not drawn)	-0.76

Only part of the results is shown; most or all hits stand in other tables.
